# GLA inh pH 4.5: qHTS Assay for Inhibitors of Human alpha-Galactosidase at pH 4.5. Alpha-galactosidase A (Homo sapiens), P06280. purified enzyme, 4-MU-alpha-Gal fluorescence, pH 4.5. activity change, negative = inhibition, % at 105 µM. 230,000 tested, under 10 active; inconclusive = small, poorly fitted or top-dose-only inhibition, or a rising curve; inactive = flat fitted curve, though single readings scatter; no compound was filed as active;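 further: 0% = full activity with enzyme and -100% = basal without enzyme; dose as in the result columns while the protocol names 77 µM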
# Rango release inh: qHTS Assay for Inhibitors of RanGTP induced Rango (Ran-regulated importin-beta cargo) - Importin beta complex dissociation | AID 540253, 2011 | Biochemical FRET Rango-importin beta, RanGTP-induced dissociation | Snurportin-1 (Homo sapiens) + GTP-binding nuclear protein Ran (Homo sapiens) + Importin … | 340,000 compounds, 0.071% hits | Potency, µM (series often up to 46.1 µM), for inactives: top-dose activity change, negative = inhibition; active means falling FRET ratio curve, often poorly fitted, with flat reads before Ran was added; inconclusive means other falling curves, or compound fluorescence or quenching; inactive means flat or rising ratio curve;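 further: potency means the concentration at half of the fitted maximal effect; % of control where 0% means no effect; nearly all actives have a fitted effect of over 45% in size; -100% = wells without RanGTP and RCC1; the record marks most hits as doubtful in a second field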
#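 Rango (0.1 uM)–importin beta (0.25 uM) complex; RanGTP-RCC1 trigger; 45 min RT; CFP/YFP FRET read.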
# Rango complex inh: qHTS Assay for Inhibitors of Rango (Ran-regulated importin-beta cargo) - Importin beta complex formation | Importin subunit beta-1 (Homo sapiens), Q14974 | Rango CFP/YFP FRET sensor + importin beta, 45 min | Potency, µM (titrated, usually from 92.2 µM), inactives show at the highest dose inhibition of complex formation | 340,000 compounds, 0.031% hits | AID 540263, 2011; active = rising FRET ratio curve, often small or poorly fitted; inconclusive = mostly compound fluorescence or quenching in the first reads; inactive = flat curves in all reads;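 further: potency means the concentration at half of the fitted maximal effect; 0% = DMSO wells and 100% = buffer wells lacking importin beta; nearly all actives have a fitted effect of over 15% in size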
# Target sequence (Q14974 whole entry, looked up): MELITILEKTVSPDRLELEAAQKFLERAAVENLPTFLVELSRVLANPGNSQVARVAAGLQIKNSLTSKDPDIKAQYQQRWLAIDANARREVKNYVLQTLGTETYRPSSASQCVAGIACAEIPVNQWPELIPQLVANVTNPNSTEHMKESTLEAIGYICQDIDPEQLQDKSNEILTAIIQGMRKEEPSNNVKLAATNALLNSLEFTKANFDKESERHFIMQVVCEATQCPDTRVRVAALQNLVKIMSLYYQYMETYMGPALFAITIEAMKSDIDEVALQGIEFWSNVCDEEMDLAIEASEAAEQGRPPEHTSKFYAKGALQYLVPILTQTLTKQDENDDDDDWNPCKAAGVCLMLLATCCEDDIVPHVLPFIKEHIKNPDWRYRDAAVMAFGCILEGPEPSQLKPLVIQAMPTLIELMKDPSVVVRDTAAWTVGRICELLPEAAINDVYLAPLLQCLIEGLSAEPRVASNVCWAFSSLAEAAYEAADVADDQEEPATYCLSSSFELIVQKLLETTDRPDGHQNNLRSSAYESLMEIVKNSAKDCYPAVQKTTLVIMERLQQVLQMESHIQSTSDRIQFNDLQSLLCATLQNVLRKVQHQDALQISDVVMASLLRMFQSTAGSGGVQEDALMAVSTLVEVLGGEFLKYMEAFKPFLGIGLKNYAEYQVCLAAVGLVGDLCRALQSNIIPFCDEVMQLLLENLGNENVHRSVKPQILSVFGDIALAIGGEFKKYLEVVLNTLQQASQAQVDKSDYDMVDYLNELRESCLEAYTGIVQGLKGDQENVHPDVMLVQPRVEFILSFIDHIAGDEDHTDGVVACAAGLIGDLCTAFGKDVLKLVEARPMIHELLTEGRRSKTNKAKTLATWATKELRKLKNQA
#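 FRET biosensor (snurportin 1 IBB flanked by EYFP and cerulean), 50 nM, with compound 5 min, then 0.125 microM importin beta in PBS, 1 mM DTT, 0.02% Tween-20, 0.1% BSA. CFP/YFP ratio read after 45 min at room temperature; pre-read flags interference.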
# miR-21 reporter: qHTS Assay for Modulators of miRNAs and/orActivators of miR-21; HeLa miR-21 FLuc reporter, luciferase, 48 h; Potency, µM (series often up to 38.3 µM), inactives show top-dose reporter change, positive = more light; 340,000 tested, under 10 active; active = well fitted rising curve with a large enough effect; inconclusive = small, poorly fitted or top-dose-only effect; inactive = no such curve, though single readings can be large or run the other way;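 further: % of control where 0% means no effect; miR-21 action dims this reporter so a rising signal means less miR-21 action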
#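 HeLa cells endogenously expressing miR-21, stably carrying CMV-driven firefly luciferase with a downstream miR-21 binding site, 2000 cells/well. Titrations up to approximately 40 uM, 48 hours; luciferase luminescence read.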
# * = called active by the depositor; ? = inconclusive; nt = no result given; & = joins results of further samples.
SMILES,GLA inh pH 4.5,Rango release inh,Rango complex inh,miR-21 reporter
O=c1[nH]c(Cc2ccccn2)nc2scc(-c3ccccc3Cl)c12,0,?,?,0%
CC(C)C(=O)Nc1nnc(S(=O)(=O)N(C)c2ccc(Cl)cc2)s1,nt,0%,0.3%,1%
Cc1cccc(C)c1OCCCCN1CCNCC1,nt,-16%,-0.2%,-4%
COc1ccc(CN(CC(=O)NCc2ccc(F)cc2)C(=O)CCC(=O)Nc2ccccn2)cc1,nt,-7%,-4.9%,0%
CCCCn1c(N)c(N(CC)C(=O)c2cc(OC)cc(OC)c2)c(=O)[nH]c1=O,4,0%,-2.4%,2%
COc1ccc(S(=O)(=O)Nc2cccc(S(=O)(=O)N3CCCC3)c2)cc1OC,nt,1%,2.6%,nt
COc1ccc(CNC(=O)CSc2nnc(NC(=O)c3ccccc3F)s2)cc1,nt,17%,-0.9%,-17%
CC(C)NC(=O)C(c1ccc(F)cc1)N(C(=O)CCC(=O)Nc1ccccn1)c1ccccc1F (configuration not stated),nt,8%,-1.5%,-1%
O=S(=O)(NCc1cc(-c2ccccc2)no1)c1ccccc1,?,5%,-3.5%,-5%
COCCCNC(=O)c1c(N)n(/N=C/c2cccs2)c2nc3ccccc3nc12,14,?,?,-3%
COc1cc(CCCN2CCNC[C@@H]2Cc2ccccc2)cc(OC)c1OC,nt,1%,-1.3%,nt
COCC(=O)Nc1cccc(Br)c1,-9,0%,0.7%,-10%
C=C1CCN([C@@H](C)C(=O)OCc2cccc(C)c2)S(=O)(=O)c2ccccc21,-1,5%,6.3%,-2%
CCc1ccccc1N(CC(=O)Nc1cccc(N(C)S(C)(=O)=O)c1)S(C)(=O)=O,-5,-10%,3.2%,-3%
COCCn1c(SCC(=O)NC(=O)NC2CCCCC2)nc2ccccc2c1=O,nt,-3%,12%,nt
COc1ccc(N2CC(C(=O)NCCc3c[nH]c4ccccc34)CC2=O)cc1 (configuration not stated),nt,-10%,4.3%,0%
CCCCC(=O)Nc1ccc(C(=O)Nc2ccc(S(=O)(=O)Nc3nccc(C)n3)cc2)cc1,2,7%,-3.4%,-12%
CCc1nnc(N2CCN(c3ncnc4c3oc3ccccc34)CC2)s1,-23,-18%,-0.4%,-3%
CC(NC(=O)c1cccs1)c1ccc(Cl)cc1 (configuration not stated),nt,-5%,3.3%,nt
Cc1ccc(/C=C/C(=O)O)cc1S(=O)(=O)N1CCc2ccccc21,nt,0%,2.1%,-9%
CCOC(=O)C1CCCN(C(=O)c2cc(CN3C(=O)c4ccccc4C3=O)ccc2OC)C1 (configuration not stated),nt,14%,-0.5%,nt
Cc1cc(O)c2c(c1)C(=O)c1cc(O)cc(O)c1C2=O,-1&-6,-15%,0.3%,nt
C#CCNC(=O)C1=C[C@@H](c2ccc(C(F)(F)F)cc2)C[C@@H](OCc2ccc(CO)cc2)O1,nt,-15%,-0.5%,nt
COc1ccc(CN2CCN(C(=O)C3CCN(S(=O)(=O)c4cccs4)CC3)CC2)c(OC)c1OC,-2,4%,-0.6%,4%
Cc1ccc(C(=O)NC(C)CCc2ccccc2)cc1S(=O)(=O)N1CCOCC1 (configuration not stated),nt,-1%,-0.5%,nt

# 2 entries picked at random from those above, as already listed:
SMILES,GLA inh pH 4.5,Rango release inh,Rango complex inh,miR-21 reporter
O=S(=O)(NCc1cc(-c2ccccc2)no1)c1ccccc1,?,5%,-3.5%,-5%
COc1ccc(CN2CCN(C(=O)C3CCN(S(=O)(=O)c4cccs4)CC3)CC2)c(OC)c1OC,-2,4%,-0.6%,4%

# Further records:
SMILES,GLA inh pH 4.5,Rango release inh,Rango complex inh,miR-21 reporter
CC1Cc2ccccc2N1S(=O)(=O)c1cccc(C(=O)Nc2cccnc2)c1 (configuration not stated),-9,1%,0.0%,?
O=C(NCC(=O)N(CC1CCCO1)C1(C(=O)NC2CCCC2)CCCCC1)c1ccccc1 (configuration not stated),-5,-10%,-0.1%,7%
Cc1ccc(Nc2nc(N)nc(CSCCO)n2)cc1,-5,1%,2.8%,-35%
CN1CCN(S(=O)(=O)c2cccc(C(=O)Nc3nc(-c4ccccc4)cs3)c2)CC1,-6,0%,0.4%,14%
Cc1ccc(CSC2=Nc3ccccc3C3=NC(CC(=O)NCc4ccco4)C(=O)N23)cc1 (configuration not stated),-24,11%,-1.3%,-45%
CN(CC(=O)N1CCOCC1)C(=O)CSc1nc2ccccc2s1,6,1%,-0.4%,-1%
CCC(=O)c1cc2c(C)cc(=O)oc2c(C)c1OC,3,-17%,-4.9%,-4%
O=C(O)c1cc(C2CC2)nc2ccccc12,4&-7,7%,2.1%,-3%
CC(C)CCN1C(=O)c2ccc(C(=O)NCC3CCCO3)cc2C1=O (configuration not stated),1,-5%,-0.2%,-4%
COC(=O)C(O)(NC(=O)NC(C)=O)C(F)(F)F (configuration not stated),4,-4%,-0.2%,-3%
CN1CCN(C(=O)c2cc3nc(-c4ccccc4)cc(-c4ccccc4)n3n2)CC1,-9,3%,?,-2%
Cc1cccc(-c2noc(CCC(=O)Nc3ccc(C(N)=O)cc3)n2)c1,-1,-21%,-2.5%,-1%
COc1ccc(C)cc1NC(=O)c1nnn(Cc2cccc(F)c2)c1N,-1,20%,2.6%,6%
CCC(Oc1ccccc1)C(=O)N1CCC(C(N)=O)CC1 (configuration not stated),-2,6%,0.9%,-28%
COc1cc(-c2nc(C)c(C(C)=O)n2O)ccc1OCC(=O)Nc1ccc(F)cc1,-3,6%,1.1%,8%
CCOC(=O)N1CCN(c2ccc(S(=O)(=O)N3CCOCC3)cn2)CC1,nt,-13%,0.1%,nt
CC1CCCN(C(=O)c2cc(-c3ccco3)nc3ccccc23)C1 (configuration not stated),nt,-5%,?,nt
CC1COc2ccccc2N1C(=O)c1ccc(Cl)cc1 (configuration not stated),nt,11%,1.1%,0%
O=C(NCc1csc(-c2cccs2)n1)C1CCC1,-4,9%,-3.5%,-44%
COc1ccc(CNS(=O)(=O)NCc2ccccc2)cc1,?,14%,7.6%,-8%
CCOCCCn1c(SCC(=O)Nc2ccc(C(N)=O)cc2)nc2ccccc2c1=O,-2,11%,-0.1%,-3%
O=C(NCCN1CCCCC1)c1c(O)c2ccccc2[nH]c1=O,nt,-4%,4.2%,-15%
Cc1cc(NC(=O)/C=C/c2cccc(Cl)c2)n(-c2nc3ccccc3[nH]2)n1,9,7%,-0.7%,-35%
CCCOc1ccc(C(=O)N(CC(C)C)c2c(N)n(Cc3ccccc3)c(=O)[nH]c2=O)cc1,nt,-1%,1.2%,nt
CCN(CC)c1ccc(C2C(C(=O)OCCOC)=C(C)NC3=C2C(=O)CCC3)cc1 (configuration not stated),-2,-2%,-1.4%,1%
# Further records.
SMILES,GLA inh pH 4.5,Rango release inh,Rango complex inh,miR-21 reporter
COc1c(Cl)cc(Cl)cc1CNCCNCC(C)O (configuration not stated),6,-4%,-0.6%,-9%
COc1ccc(S(=O)(=O)N2CCC(C(N)=O)CC2)c2ccccc12,6,0%,-1.7%,-1%
Cc1ccc(-n2nnnc2SCc2ccccn2)cc1C,-7,4%,3.2%,-42%
Clc1ccc(-c2nc3ccccc3n2OCc2ccccc2)cc1,-2,-12%,3.8%,-2%
O=C1/C(=C\c2cccc([N+](=O)[O-])c2O)SC(=S)N1Cc1ccccc1,nt,-4%,-0.6%,?
CCN(CC)C(=O)c1sc2c(c1C)c(=O)n(-c1ccc(C)c(C)c1)c(=O)n2CC(=O)NCC1CCCO1 (configuration not stated),2,2%,2.5%,0%
O=S(=O)(c1ccc(NC(=S)N/N=C/c2ccc(O)c(O)c2)cc1)N1CCOCC1,-2,16%,3.5%,-29%
CN1CCN(S(=O)(=O)c2cccc(C(=O)N(C)Cc3c(F)cccc3Cl)c2)CC1,nt,7%,-1.7%,nt
Oc1ccc(-c2nc3ncccn3c2Nc2ccc3c(c2)OCO3)cc1,-6,-5%,6.9%,5%
O=C(c1ccccc1)C1CCN(C(=O)c2ccc(Cl)cc2)CC1,nt,0%,0.1%,7%
COc1ccc(C(CNC(=O)CCNC(=O)c2ccccc2Cl)N2CCCC2)cc1 (configuration not stated),nt,2%,-2.5%,nt
Oc1ccccc1-c1n[nH]c(=S)n1Cc1ccccc1,nt,3%,-1.6%,-2%
CC(C)CC(c1nnnn1CCc1ccccc1)N1CCC(C(N)=O)CC1 (configuration not stated),-1,15%,-4.6%,1%
CCC(=O)c1ccc(OCC(=O)NC2CCN(Cc3ccccc3)CC2)cc1,nt,0%,4.6%,nt
CCCOc1ccc(C(=O)Nc2ccc(S(=O)(=O)Nc3cc(C)nc(C)n3)cc2)cc1,4,16%,-0.8%,-1%
O=S(=O)(Nc1ccc2c(c1)OCCO2)c1ccc2oc3ccccc3c2c1,-18,-6%,-0.4%,15%
CCc1ccc(C(=O)N2CCN(c3ccc(F)cc3)CC2)s1,-4,18%,-0.1%,-14%
CC(=O)c1cnc2cc(C)nn2c1C,-6,4%,3.1%,-1%
CC(C)NC(=S)N/N=C/c1c[nH]c2ccccc12,-13,6%,-1.6%,-46%
CN(C)c1ccc(/C=C/C(O)=C2/C(=O)N(C)C3(C)CC2c2ccccc2O3)cc1 (configuration not stated),-5,nt,nt,2%
CC1(C)CC(=O)C2=C(C1)NC(=O)CC2c1ccc(F)cc1 (configuration not stated),1,2%,0.3%,-3%
N#CC1=C2C=Cc3ccccc3N2CCCC1=O,-1,?,?,-35%
CCOC(=O)c1ccc(Nc2cc(C)nc(C)c2C(=O)OCC)cc1,-3,2%,5.5%,1%
COc1cccc(OCc2cc(C(=O)NCC3CCCCC3)no2)c1,nt,2%,-1.4%,-29%
COc1ccccc1OCC(=O)NCC1CCCN(Cc2cnn(C)c2C)C1 (configuration not stated),nt,3%,-0.4%,-4%

# An excerpt from above in order of number of heavy atoms, high to low.
SMILES,GLA inh pH 4.5,Rango release inh,Rango complex inh,miR-21 reporter
CCCOc1ccc(C(=O)Nc2ccc(S(=O)(=O)Nc3cc(C)nc(C)n3)cc2)cc1,4,16%,-0.8%,-1%
CN(C)c1ccc(/C=C/C(O)=C2/C(=O)N(C)C3(C)CC2c2ccccc2O3)cc1 (configuration not stated),-5,nt,nt,2%
COc1ccccc1OCC(=O)NCC1CCCN(Cc2cnn(C)c2C)C1 (configuration not stated),nt,3%,-0.4%,-4%
Oc1ccccc1-c1n[nH]c(=S)n1Cc1ccccc1,nt,3%,-1.6%,-2%

# Next section.
SMILES,GLA inh pH 4.5,Rango release inh,Rango complex inh,miR-21 reporter
CC(NC(=O)/C=C/c1cnc2ccccc2n1)C12CC3CC(CC(C3)C1)C2 (configuration not stated),1,-2%,-1.4%,-6%
O=C(CN1C(=O)C2C3C=CC(C3)C2C1=O)NCc1ccc2c(c1)OCO2 (configuration not stated),4,-2%,-3.5%,-4%
C=CCSCC1Nc2cc(Cl)c(S(N)(=O)=O)cc2S(=O)(=O)N1 (configuration not stated),-3,-6%,-3.3%,nt
CC(=O)c1ccc(OCCCC(=O)NCc2nnc3ccccn23)cc1,nt,-5%,-0.5%,nt
COc1ccc(CCNC(=O)Cn2c(=O)n(-c3ccc(F)cc3F)c(=O)c3sccc32)cc1OC,-4,-1%,4.3%,12%
CC(C)C(NC(=O)C1CCCCC1)C(=O)NCCc1ccccc1 (configuration not stated),1,9%,-0.5%,0%
O=C(COC(=O)Cc1n[nH]c(=O)c2ccccc12)NNC(=O)c1ccccc1,nt,4%,2.6%,nt
COc1cccc(NC(=O)CCC(=O)Nc2ccc3nc(N4CCOCC4)cc(C)c3c2)c1,nt,20%,-3.4%,-36%
O=C(NC1CCCC1)C1CCC(=O)N1C1CCCCC1 (configuration not stated),-2,3%,0.4%,0%
C=CCn1c(-c2cccc(OCC)c2)n[nH]c1=S,4,8%,0.6%,-10%
CCOc1ccc(NC(=O)COc2ccc(N3CC(C(N)=O)CC3=O)cc2)cc1 (configuration not stated),nt,-4%,0.7%,nt
CCCCN1CC(COCc2ccccc2)Oc2ccccc2S1(=O)=O (configuration not stated),nt,-3%,0.9%,nt
COc1ccc(-c2cc(C(F)(F)F)nc(SCCC(=O)NCc3ccccc3)n2)cc1,-2,2%,-0.3%,-2%

# Only part of the results is shown; the hit share may differ from the screen's.
